# Screens as filed in PubChem.
# rRNA inh HTS – reduced GFP signal of wild-type E. coli, primary screen, bacterial rRNA inhibitor project, GFP/RFP fluorescence, OD600, single point; 1.6% of 350,000 active; GFP signal change (wild-type ribosome), % (test concentration not listed); E. coli WT GFP vs humanized-ribosome RFP mutants, 24 h; stronger effect = lower value; DMSO median 0, no signal -100;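 active = significant combined selectivity score with lowered wild-type GFP, culture density cut under 30%, mutant RFP and density less affected; inactive = any of these conditions unmet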; note: one replicate is shown; some compounds called inactive have numbers as strong as hits
# AF4-AF9 inh – inhibitors of AF4 peptide binding to AF9, primary screen, biochemical, AlphaScreen, biotin-AF4 peptide, FLAG-AF9, single point. Protein AF-9 (Homo sapiens), P42568. inhibition, % at 10 µM. 0.47% of 350,000 active. AID 651704, 2012;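 active = every replicate reaching a set inhibition limit, whatever the replicate mean, cut at about 25% in these data; inconclusive = mean inhibition reaches that limit but some replicates miss it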;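 note: 0% = plate neutral control median and 100% = total signal loss; the record names both 10 and 1 µM as test concentration; the first replicate is given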
# Target sequence (P42568 whole entry, looked up): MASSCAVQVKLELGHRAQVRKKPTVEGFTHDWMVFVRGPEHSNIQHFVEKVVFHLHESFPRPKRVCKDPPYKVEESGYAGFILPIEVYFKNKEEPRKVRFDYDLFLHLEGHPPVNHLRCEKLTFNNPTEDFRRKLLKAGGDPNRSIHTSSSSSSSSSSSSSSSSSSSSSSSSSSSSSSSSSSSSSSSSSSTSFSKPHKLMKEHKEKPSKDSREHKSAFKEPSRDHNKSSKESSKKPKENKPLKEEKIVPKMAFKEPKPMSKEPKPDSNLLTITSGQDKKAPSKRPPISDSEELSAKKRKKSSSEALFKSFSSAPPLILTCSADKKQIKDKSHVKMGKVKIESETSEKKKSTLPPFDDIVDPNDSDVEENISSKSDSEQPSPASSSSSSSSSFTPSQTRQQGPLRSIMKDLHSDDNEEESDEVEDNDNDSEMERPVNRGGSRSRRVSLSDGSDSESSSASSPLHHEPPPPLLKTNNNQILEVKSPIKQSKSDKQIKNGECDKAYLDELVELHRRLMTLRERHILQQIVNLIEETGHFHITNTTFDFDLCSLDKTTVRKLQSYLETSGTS
# T cruzi repl – inhibitors of intracellular T. cruzi growth, primary screen, luminescence, NIH3T3 host cells | 1.4% of 300,000 active | inhibition, % (concentration not given with the values) | T. cruzi beta-gal in NIH3T3, 90 h | AID 1885, 2009;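 active = mean inhibition across valid replicates above about 55%, limit read from the data; inconclusive = mean below that limit but half or more replicates reach it; inactive = mean below it, under half of replicates reach it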;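 note: signal also drops with host cell toxicity which is not excluded here; 0% = plate median of DMSO wells and 100% = zero luminescence signal; higher percent means less beta-gal luminescence so fewer parasites; stock transfer was 50 nL into about 50 µL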
# Beta apoptosis – inhibitors of cytokine-induced beta cell apoptosis, primary screen, luminescence | INS-1E cytokine-induced death, ATP luminescence, 48 h; percent of positive-control rescue, neutral wells zero | protection from apoptosis, % (concentration not given with the values) | 0.8% of 300,000 active;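 active = all replicates at 75% or more, or half of them and the mean; inconclusive = half reach 75% but not the mean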;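 note: 0% = cytokine-treated negative control wells and 100% = positive control rescue; higher means more ATP so stronger rescue from cytokine killing; wells of about 40 µL received 100 nL stock; the first replicate is given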
# ALR H2O2 inh – inhibitors of human ALR sulfhydryl oxidase, primary screen, biochemical, H2O2 detection, HRP-luminol luminescence, single point | FAD-linked sulfhydryl oxidase ALR (Homo sapiens), P55789 | purified ALR, DTT oxidation | inhibition, % (test concentration not listed) | 3.8% of 290,000 active | AID 485317, 2010;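 active = mean and each replicate at 75% or more; inconclusive = only one of the two met; inactive = neither met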;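 note: stock transfer was 7.5 nL into about 7.5 µL; 0% = neutral wells and 100% = wells with inactivated enzyme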
# Target sequence (P55789 whole entry, looked up): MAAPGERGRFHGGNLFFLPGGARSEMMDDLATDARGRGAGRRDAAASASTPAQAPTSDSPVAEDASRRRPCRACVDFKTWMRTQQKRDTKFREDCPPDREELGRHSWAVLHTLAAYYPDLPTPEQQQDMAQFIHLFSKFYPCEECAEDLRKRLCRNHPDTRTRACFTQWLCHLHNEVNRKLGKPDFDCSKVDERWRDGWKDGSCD
# Calb FLC – C. albicans growth inhibition with fluconazole, primary screen, CaCi-2 strain, Alamar Blue fluorescence. C. albicans CaCi-2 (fluconazole-resistant clinical isolate) + fluconazole, 48 h. growth inhibition, % (no concentration beside the values). 0.57% of 300,000 active. AID 1979, 2009;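 active = most replicates above 75%; inconclusive = exactly half above 75%; inactive = most below 75%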;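 note: all wells also contain fluconazole at 8 µg/ml as a sub-toxic cotreatment; 0% = median of DMSO wells and 100% = median of geldanamycin control wells; wells of about 8 µL received 7.5 nL stock; the first replicate is given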
# FGF22 binding – binders of human FGF22 protein, primary screen, FGF22 synaptogenesis inhibitor project, biophysical, thermal shift, single point; 1.5% of 340,000 active; Fibroblast growth factor 22 (Homo sapiens), Q9HCT0; calls only at 9.99 µM; recombinant FGF22 thermal shift, SYPRO orange fluorescence; percent of sucrose octasulfate shift, DMSO zero; AID 651658, 2012;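 active = melting point raised past a set limit in the mean and every replicate; inconclusive = no clear call; three in four hits are not shown here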
# Target sequence (Q9HCT0 whole entry, looked up): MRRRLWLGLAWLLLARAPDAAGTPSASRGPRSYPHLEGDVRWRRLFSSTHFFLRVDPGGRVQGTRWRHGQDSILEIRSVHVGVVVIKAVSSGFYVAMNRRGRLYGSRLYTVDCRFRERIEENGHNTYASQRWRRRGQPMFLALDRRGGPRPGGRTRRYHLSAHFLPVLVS
# RanGTP-Impb inh – inhibitors of RanGTP-importin-beta interaction, primary screen, biochemical, FRET, CFP-Ran, YFP-importin-beta, homogeneous | cell-free CFP-Ran/YFP-importin-beta FRET ratio | inhibition, % (concentration not given with the values) | 1.1% of 300,000 active | AID 2216, 2009;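 active = most replicates above 15%; inconclusive = exactly half above 15%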;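 note: 0% = DMSO wells and 100% = Ran loaded with GDP instead of GTP; wells of about 40 µL received 100 nL stock; the first replicate is given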
# rRNA inh HTS OD600 – recorded beside rRNA inh HTS, whose call it bears; OD600 change, %; measured here: OD600 growth;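 optical density of the mix in the first replicate; 0 = DMSO median and -100 = no signal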
# rRNA inh HTS RFP – second read-out of rRNA inh HTS, no call of its own (marks repeat the call); RFP signal change, %; measured here: RFP humanized mutant strains;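 first replicate; 0 = DMSO median and -100 = no signal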
# * hit, by the source's call; i = inactive; ? = inconclusive; · = no result given. This is a subset. The share of hits here may be higher or lower than overall.
SMILES,rRNA inh HTS,rRNA inh HTS OD600,rRNA inh HTS RFP,AF4-AF9 inh,T cruzi repl,Beta apoptosis,ALR H2O2 inh,Calb FLC,FGF22 binding,RanGTP-Impb inh
CS(=O)(=O)n1nc(-c2cccnc2)nc1NCc1ccccc1,4.5,-7.0,-1.5,0.6,-1.2,-3.5,-10.2,-8.2,i,9.2
CN1CCN(c2ccc(S(=O)(=O)N3CCCCC3)cc2NC(=O)COc2ccc(F)cc2)CC1,-13.2,-14.3,4.3,10.0,64.4*,9.0,·,-9.5,i,-0.5
CCN1C(=O)CSc2ccc(C(=O)NCc3ccco3)cc21,2.3,-1.8,-1.2,3.1,-13.8,-2.3,-8.2,1.0,i,23.0*
[O-]/C(=C(\C(=S)NCCN1CCOCC1)[n+]1ccccc1)c1ccc(Cl)s1,17.0,7.2,-3.0,0.8,-2.1,-6.3,-10.6,9.9,i,0.6
CC(C(=O)N1CCOCC1)N1C(=O)c2ccccc2C1=O (stereo not drawn),·,·,·,·,-4.3,0.1,-0.5,1.6,·,-2.1
Cc1ccc(NC2=CC(=O)CC(c3ccc(Cl)cc3)C2)cc1 (stereo not drawn),·,·,·,·,20.0,3.5,-6.0,8.9,·,34.8*
CC(C)CCN1C(Nc2ccccc2)=NC[C@@H]1CC(C)C,2.5,-5.6,-0.2,3.0,-16.3,-4.1,43.8,-20.6,i,-0.7
O=S(=O)(Nc1ccc(Br)cc1)c1cccc2cccnc12,-25.6*,-16.8*,0.9*,-1.1,-5.7,-1.2,-17.0,33.5,i,-2.9
CCOc1ccc(N(CC(=O)N/N=C/c2cc(Br)c(C)o2)S(C)(=O)=O)cc1,16.1,10.1,0.0,-0.6,-12.6,1.8,-2.5,-3.8,i,2.9
N#C/C(=C\c1cccc(Oc2ccc(C(F)(F)F)cc2[N+](=O)[O-])c1)c1nc2ccccc2[nH]1,·,·,·,·,1.7,-4.3,2.7,6.1,·,5.2
COc1ccc(C)cc1NC(=O)NC(C)c1ccncc1 (stereo not drawn),8.9,5.1,1.6,0.8,5.5,-0.1,-10.3,30.3,i,0.0
CCCCNC(=O)C1CC(=O)N(CCC(C)C)C1 (stereo not drawn),·,·,·,·,0.4,-11.6,1.5,-7.1,·,1.1
CCOC(=O)c1sc(NS(=O)(=O)c2ccccc2)nc1C,-6.3,-10.1,-1.3,-9.0,-5.3,-6.7,-4.3,-23.3,i,-4.4
Cn1c(C(=O)N2CCN(C(=O)c3ccco3)CC2)cc2c(=O)n3ccccc3nc21,·,·,·,·,-7.0,-0.8,9.7,7.3,·,2.5
CCCC(=O)N(c1ccc(OC)cc1)C1C=CS(=O)(=O)C1 (stereo not drawn),·,·,·,·,-10.4,-1.8,2.8,-15.6,·,-4.6
CCOC(=O)C(C)n1cnc2c(cnn2-c2ccc(Cl)cc2)c1=O (stereo not drawn),·,·,·,·,-1.7,2.3,-22.6,3.1,·,4.8
Cc1nn(Cc2ccccc2)c(C)c1CCC(=O)O,·,·,·,·,-2.6,1.5,·,1.4,·,-2.6
O=C(Nc1ccc(Cl)cc1)c1nc[nH]c1C(=O)NCCCCNC(=O)c1[nH]cnc1C(=O)Nc1ccc(Cl)cc1,6.3,7.2,-0.3,·,·,7.4,-2.8,·,i,·
COc1ccc(-n2c(=S)[nH]c3cc(C(=O)N4CCN(c5ccccc5)CC4)ccc3c2=O)cc1,-0.6,9.6,-1.9,9.6,1.1,-2.5,1.6,4.9,i,0.0
CN(CC(=O)Nc1cccc(F)c1)C(=O)COc1ccc2c(c1)CCC2,-2.1,-7.7,-3.3,1.1,·,-2.0,7.5,·,i,·
COc1ccc(C2/C=C\CN(S(=O)(=O)/C=C/c3ccccc3)CC(=O)N2Cc2ccc(F)cc2)cc1 (stereo not drawn),-3.5,1.2,16.3,4.2,33.2,-2.0,·,6.5,i,-5.5
COc1ccc(N(C)S(=O)(=O)c2cccc(C(=O)NCC3CCCO3)c2)cc1 (stereo not drawn),·,·,·,·,-0.2,-7.0,-8.6,-1.6,·,-2.5
CCOc1ccc(CCNC(=O)COC(=O)c2cc(OC)cc(OC)c2)cc1OCC,-3.6,0.0,-1.7,-0.3,-19.9,-28.5,13.3,3.4,i,7.0
COc1cc2sc3ccc(C#Cc4ccc(N)cc4)cc3c(=O)c2cc1OC,·,·,·,·,45.9,·,31.9,-8.0,·,4.8
Cc1c(C(=O)Nc2nc3ccccc3[nH]2)oc2ccc(Br)cc12,23.5,8.0,4.7,-5.2,56.5*,12.0,-2.2,-10.6,i,1.9

# Reformatted with tabs: entries from further up.
smiles	rRNA inh HTS	rRNA inh HTS OD600	rRNA inh HTS RFP	AF4-AF9 inh	T cruzi repl	Beta apoptosis	ALR H2O2 inh	Calb FLC	FGF22 binding	RanGTP-Impb inh
Cc1ccc(NC2=CC(=O)CC(c3ccc(Cl)cc3)C2)cc1 (stereo not drawn)	·	·	·	·	20.0	3.5	-6.0	8.9	·	34.8*
CC(C)CCN1C(Nc2ccccc2)=NC[C@@H]1CC(C)C	2.5	-5.6	-0.2	3.0	-16.3	-4.1	43.8	-20.6	i	-0.7
O=S(=O)(Nc1ccc(Br)cc1)c1cccc2cccnc12	-25.6*	-16.8*	0.9*	-1.1	-5.7	-1.2	-17.0	33.5	i	-2.9

# (listing goes on)
SMILES,rRNA inh HTS,rRNA inh HTS OD600,rRNA inh HTS RFP,AF4-AF9 inh,T cruzi repl,Beta apoptosis,ALR H2O2 inh,Calb FLC,FGF22 binding,RanGTP-Impb inh
Cc1nc(SCc2ccc(OCCC(C)C)cc2)n[nH]1,-16.0,-21.8,-6.1,-6.9,18.0,-14.8,-3.9,55.0,i,5.2
Cc1ccc(C)c(NCC(O)c2ccccc2)c1 (stereo not drawn),·,·,·,0.3,-16.6,2.6,·,-9.2,·,-0.6
CCNC(=S)Nc1ccc(OC(F)(F)F)cc1,-5.9,-25.1,-1.2,2.7,-18.2,-3.8,0.0,-30.4,i,-3.5
COc1ccc2oc(C(=O)OCC(=O)N3CCN(S(=O)(=O)c4ccc(C)cc4)CC3)c(C)c2c1,-0.7,1.9,-1.3,-2.7,3.0,-5.8,-10.0,-7.5,i,2.6
O=C(CSC1=NS(=O)(=O)c2cc(Cl)ccc2N1)Nc1ccccc1C(F)(F)F,-5.6,-10.1,-1.4,-0.7,9.2,-7.3,·,19.6,i,-0.6
Cc1cccc(Cn2cnc3ccccc32)c1,·,·,·,·,0.7,7.6,-4.1,9.4,·,2.9
CS(=O)(=O)c1ccc2nc(NC(=O)c3ccc(Cl)cc3)sc2c1,16.0,9.4,-0.6,-1.2,-10.3,9.7,1.3,16.3,i,1.5
COc1cc(SC)ccc1C(=O)Nc1ncc(C)s1,-10.7,-1.6,-3.6,-3.2,13.3,-1.0,9.3,58.4,i,-1.6
COCCCn1c(=O)c2sccc2n(Cc2ccccc2)c1=O,-1.1,5.8,1.4,0.5,3.2,-4.1,-4.2,14.1,i,4.8
O=C(/C=C/c1ccccn1)c1cc(Br)ccc1O,-5.4,-5.7,-0.4,-10.1,-5.5,16.0,51.0,-1.9,i,-0.7
COc1ccc(CCNC(=O)N2c3ccccc3Sc3ccccc32)cc1,·,·,·,·,19.2,6.5,-6.2,19.2,·,-0.9
Cc1ccc(C)c(NC(=O)c2ccccc2NS(=O)(=O)c2cc([N+](=O)[O-])ccc2C)c1,·,·,·,-1.3,-34.7,111.6*,5.8,·,i,·
COc1ccccc1C1=NOC(Cn2c(=O)c3c(ncn3C)n(C)c2=O)C1 (stereo not drawn),·,·,·,·,-5.0,-0.2,-1.9,1.3,·,0.1
COc1ccc(C)cc1NC(=S)Nc1ccccc1SC,8.0,7.1,1.4,1.3,-4.2,-4.1,·,5.1,i,0.1
Cc1ccc(C(=O)Nc2ncc([N+](=O)[O-])s2)cc1,-52.0*,-33.6*,-3.5*,0.6,36.2,68.0,2.4,38.8,i,-0.1
Nc1[nH]c2cc([N+](=O)[O-])ccc2c1-c1ccccn1,-8.7,-24.9,5.3,10.6,-2.1,8.6,92.1*,3.8,i,-12.0
O=C(Nc1ccccc1)/C(=C1\CCCN1)[N+](=O)[O-],12.8,8.8,-1.8,-2.1,-14.2,-11.0,3.7,1.0,i,4.2
O=C(Nc1nc2c(F)cc(F)cc2s1)c1ccc([N+](=O)[O-])o1,2.4,4.0,-3.8,4.4,50.7,24.5,-11.2,6.6,i,5.8
COc1ccc(C2CC(=O)N3CN(c4ccc(C)c(Cl)c4)CSC3=C2C#N)cc1 (stereo not drawn),-5.6,1.7,7.3,2.6,13.0,-7.9,-19.7,-1.9,i,?
Cc1cccc(NC(=O)c2ccc3c(c2)OCCO3)n1,·,·,·,·,2.3,·,3.5,-3.8,·,1.2
NS(=O)(=O)c1ccc(NC(=O)CCc2ccccc2)cc1,2.4,5.4,-2.3,·,-3.1,2.1,-5.5,20.6,·,0.7
CCCCNc1ncnc2sc3c(c12)CCN(CCC)C3,-3.3,-7.0,-1.3,-20.9,8.6,6.3,-16.0,-5.6,i,-1.3
Cc1cccc(C)c1NC(=O)CSc1cc(C(=O)c2nccn2C)c2ccccc2n1,·,·,·,·,7.6,4.7,-7.1,-6.0,·,-1.2
O=C(/C=C/c1ccco1)Nc1ccc2nc3n(c(=O)c2c1)CCCC3,4.7,0.5,5.2,-0.5,-43.5,-0.8,34.4,18.3,i,-3.8
O=C(Cc1cnc2ncnn2c1)N1CCc2c([nH]c3ccccc23)C1c1ccccc1F (stereo not drawn),-7.9,-9.3,3.6,5.7,3.0,4.0,11.8,2.8,i,-3.0
# (list continues)
SMILES,rRNA inh HTS,rRNA inh HTS OD600,rRNA inh HTS RFP,AF4-AF9 inh,T cruzi repl,Beta apoptosis,ALR H2O2 inh,Calb FLC,FGF22 binding,RanGTP-Impb inh
Cn1nc(C(=O)Nc2ccccc2N2CCCC2)c2ccccc2c1=O,-35.8,-39.7,-11.3,22.5,17.0,9.6,91.5*,19.3,i,-1.3
CCn1c(SC(C)C)nnc1-c1c[nH]c2ccccc12,-1.5,6.5,-2.7,-1.4,11.6,0.2,3.5,-3.4,i,2.1
O=C(Nc1cccnc1)C(Cc1ccccc1)n1cccc1 (stereo not drawn),13.7,13.2,2.5,-5.3,-5.6,-5.3,16.3,-8.3,i,-3.9
COc1ccccc1/C=C\C(=O)NCC(=O)N/N=C/c1cccc(OC)c1O,-9.6,-8.0,-2.9,-0.5,-10.5,41.1,1.3,-21.8,i,0.6
O=C(Nc1ccccc1-c1nc2ccccc2s1)c1ccc(Br)o1,·,·,·,·,0.3,-1.0,0.3,-16.4,·,3.0
Cc1ccccc1CN(C)CC(=O)Nc1cccc(S(=O)(=O)N(C)c2ccccc2)c1,-20.6*,-15.9*,-0.3*,0.1,24.9,-4.1,-14.2,9.2,i,-0.2
